# Bioassay records from PubChem BioAssay.
# Tg IFNy HTS – T. gondii growth inhibition under IFN-gamma; Toxoplasma gondii growth in IFN-gamma-treated host cells; active compounds read low; reference of the scale not given here; activity change, negative = inhibition, %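 (about 20 µM by stock and volumes)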; 69,000 compounds, 3.8% hits;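 active = below -70%; inconclusive = fit judged invalid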;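 note: host cells are HeLa cells infected with Toxoplasma gondii; parasite growth read as luciferase light; one replicate is shown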
# * hit, by the source's call; ? = inconclusive; & = joins results of further samples. Only part of the results is shown, so the mix of outcomes need not match the whole.
compound,Tg IFNy HTS
Cc1ccsc1CCNC(=O)Cn1c(=O)ccc2cc(S(=O)(=O)N3CCCC3)ccc21,30
N#CNC1=NCN(CCCN2CCOCC2)CN1,124
CCS(=O)(=O)N1Cc2cc(-c3ccn[nH]3)ccc2C1c1cnco1 (stereo unspecified),11
CC(=O)N1CCC2(C=C(C(=O)Nc3ccccc3O)c3ccccc3O2)CC1,15
O=C(C[C@@H]1CC[C@@H](NC(=O)C2CCOCC2)[C@H](CO)O1)NCC1CCCCC1,-25
CN(C)CCOCC12CCCOC1CCN(C(=O)c1ccncc1)C2 (stereo unspecified),4
Cc1sc(-c2nc(C(C)C)cs2)cc1S(=O)(=O)N1CCC(C)CC1,-89*
COc1cccc(-c2nc(Cn3ccn4nc(-c5ccc(C)c(C)c5)cc4c3=O)c(C)o2)c1OC,?
CN(Cc1ncc[nH]1)C(=O)COc1ccc(F)cc1,1
Nc1c(S(=O)(=O)Cc2ccccc2)sc2nc3c(cc12)CCCC3,-19
Cc1c(S(=O)(=O)N2CCCC2c2ccc(F)cc2)cnn1-c1ccccc1 (stereo unspecified),-21
CCCCCCCCCCOc1cc2c(=O)c(C(=O)OCC)c[nH]c2cc1OCC,-18
COc1ccc(NC(=O)N2CCCCN3[C@H](CO)[C@@H](c4ccc(-c5ccccc5F)cc4)[C@@H]3C2)cc1,-25
COCCN(C)C(=O)c1nc(-c2cn(-c3ccccn3)cn2)n2ccccc12,-3
CC(C)c1ccc(NC(=O)CSc2nnc(CSc3cccs3)n2C)cc1,-21
COc1cc(N)c(Cl)cc1C(=O)OCCCN1CCCCC1,11&-1
Cc1ccc(S(=O)(=O)N(C)C[C@H]2OCCCC[C@H](C)Oc3ccc(NC(=O)c4ccncc4)cc3C(=O)N([C@H](C)CO)C[C@H]2C)cc1,9
CC(=O)N1CCc2c([nH]c3ccccc23)C12C(=O)Nc1ccccc12 (stereo unspecified),404
CCCNC[C@H]1[C@@H](c2ccc(-c3cccc(C#N)c3)cc2)[C@@H](CO)N1C(C)=O,-42
CCCCC1C=CCN1C(=O)c1cc2n(n1)CCCN(C(C)=O)C2 (stereo unspecified),8
COCC1CC2(CCN(C(=O)Cc3ccc(C)cc3)CC2)CO1 (stereo unspecified),9
Cc1ccccc1-n1nc(C)c(-c2cncn2CCNC2CCS(=O)(=O)C2)c1C (stereo unspecified),-3
O=C(NOC(=O)c1c(F)cccc1Cl)c1ccc(Cl)c(Cl)c1,138
Cc1[nH]cnc1-c1c(-c2ccccc2)ncn1CC(=O)Nc1nccs1,12
CC(c1ccncn1)N(C)C(=O)c1ccc(NC(=O)C2CCC2)cc1 (stereo unspecified),-44
O=C(NCc1ccc(F)cc1)N1CCC2(CC1)Nc1cc(F)ccc1-n1cccc12,450
O=c1c2c3ccccc3[nH]c2c2cccc3c2n1CC3,-89*
c1coc(CN2CC[C@H]3CN(C4CCOCC4)CCO[C@@H]3C2)c1,-3
CC(=O)N1c2ccc(NC(=O)c3c(-c4ccncc4)noc3C)cc2CC1C (stereo unspecified),9
CNC(=O)CSc1nnc(CNc2cccc(C(F)(F)F)c2)n1C,-61
Cc1noc([C@@]23COC[C@@H]2CN(Cc2ccc(C)o2)C3)n1,-8
COc1cccc(-c2ccc3c(c2)[C@H]2[C@H](CCN2C(=O)c2ccccc2F)[C@@H](CO)N3C)c1,-62
COc1cccc(CN2CC3(C2)CN(C(=O)C2CC2)[C@H](CO)c2[nH]c4cc(OC)ccc4c23)c1,-36
COc1cccc(NC(=O)N2C[C@H](O)COC[C@H]3O[C@@H](CC(=O)N(C)C)CC[C@@H]32)c1,17
CC(C)N(C)Cc1ncn2c1CN(C(=O)c1ccc[nH]1)CCC2,-3
Cc1nc(C)c2c(n1)OC(CN1CCc3onc(-c4cccc(F)c4)c3C1)C2 (stereo unspecified),-5
C=CC(=O)Nc1ccc2c(c1)CCC(=O)N2CC,-3
CC(C)CN1C(=O)CCc2cc(NS(=O)(=O)c3ccc(F)c(Cl)c3)ccc21,-87*
Cc1ccc(CNS(=O)(=O)NCc2ccccc2)c(F)c1F,1
CN(Cc1nc(-c2ccncc2)no1)C(=O)c1cccc2ccnn12,1
CCOc1ccccc1-c1nc(Cn2cnc3nc4c(cc3c2=O)CCCC4)c(C)o1,63
Fc1ccc(NCc2c[nH]c3ccccc23)cc1,457
O=C(NCCc1csc(-c2ccccc2)n1)[C@H]1CCCN1C(=O)COc1ccccc1,14
CCCc1ccc(S(=O)(=O)N2CCC3(CC2)Nc2ccc(C)c(C)c2-n2cccc23)cc1,32
CNS(=O)(=O)CCNC(=O)C1CC(=O)N(Cc2ccc(C)cc2)C1 (stereo unspecified),-34
COc1ccc2c3c([nH]c2c1)[C@@H](CO)N(C(=O)C1CCOCC1)CC31CCN(Cc2nccs2)CC1,103
Clc1cccc(CN2CCN(Cc3ccc4nonc4c3)CC2)c1,-13
CCc1cc(-c2n[nH]c(C)c2-c2nc3ccccc3n2C)c(O)cc1O,13
CC(C)(O)C#Cc1cccc(-c2n[nH]c(Cc3ccccc3)n2)c1,-35
O=C(N[C@H]1CC[C@@H](CCNS(=O)(=O)c2ccc(F)cc2)O[C@H]1CO)C1CCC1,-42

# Gathered by group, the entries above containing an aryl thioether with sulfur outside any ring (2)
compound,Tg IFNy HTS
CC(C)c1ccc(NC(=O)CSc2nnc(CSc3cccs3)n2C)cc1,-21
CNC(=O)CSc1nnc(CNc2cccc(C(F)(F)F)c2)n1C,-61

# (listing goes on)
compound,Tg IFNy HTS
CSc1ncc(S(=O)(=O)Cc2ccco2)c(N)n1,-45
NC(=O)c1cc2c(cc1-c1cccc(C(F)(F)F)c1)OCO2,0
Fc1cccc(-c2csc(-c3ccc(C(F)(F)F)cc3)n2)c1,109
CC(C)Oc1ccc(C(CCN)c2ccccc2)cc1 (stereo unspecified),16
COc1ccc2c(c1)NC1(CCN(C(=O)Cc3ccc(OC)c(OC)c3)CC1)c1cccn1-2,22
Cc1oc(C2CCN(C(=O)NCc3cccc(F)c3)CC2)nc1C(=O)N1CCOCC1,-3
Cc1noc(C)c1S(=O)(=O)NCC(c1cccnc1)c1c[nH]c2ccccc12 (stereo unspecified),3
Cc1cccc(C)c1NC(=O)CN1CCC2(CC1)N=C(c1cccc(F)c1)C(=O)N2,1
Cc1nc(C)n(CCCNC(C)CO)n1 (stereo unspecified),1
CCc1nc(C)ccc1OCC(=O)N1CCC(O)(CN(C)C)C1 (stereo unspecified),0

# Entries from the list above that contain an aryl methoxy group, in the order listed:
compound,Tg IFNy HTS
COc1cccc(-c2nc(Cn3ccn4nc(-c5ccc(C)c(C)c5)cc4c3=O)c(C)o2)c1OC,?
COc1ccc(NC(=O)N2CCCCN3[C@H](CO)[C@@H](c4ccc(-c5ccccc5F)cc4)[C@@H]3C2)cc1,-25
COc1cc(N)c(Cl)cc1C(=O)OCCCN1CCCCC1,11&-1
COc1cccc(-c2ccc3c(c2)[C@H]2[C@H](CCN2C(=O)c2ccccc2F)[C@@H](CO)N3C)c1,-62
COc1cccc(CN2CC3(C2)CN(C(=O)C2CC2)[C@H](CO)c2[nH]c4cc(OC)ccc4c23)c1,-36
COc1cccc(NC(=O)N2C[C@H](O)COC[C@H]3O[C@@H](CC(=O)N(C)C)CC[C@@H]32)c1,17
COc1ccc2c3c([nH]c2c1)[C@@H](CO)N(C(=O)C1CCOCC1)CC31CCN(Cc2nccs2)CC1,103
COc1ccc2c(c1)NC1(CCN(C(=O)Cc3ccc(OC)c(OC)c3)CC1)c1cccn1-2,22

# Continuation.
compound,Tg IFNy HTS
CCOc1ccccc1-c1nc(Cn2nnc(C(=O)Nc3ccc(Br)cc3)c2C)c(C)o1,56
Cc1cc(F)ccc1NC(=O)c1c(O)c2cccnc2n(-c2ccccc2)c1=O,-27
O=C1c2ccncc2C(=O)N1c1ccc(Cl)cc1Cl,-35
CC(C)(C)SCCNC(=O)C(C)(C)C,22
CCn1ccc2cc(S(=O)(=O)N3CCC(C(=O)N4CCN(c5ccccn5)CC4)CC3)ccc21,44
COC(=O)N1C2C=CC(C2)C1(C(F)(F)F)C(F)(F)F (stereo unspecified),54
CCn1nc(CC(C)C)cc1C(=O)N1CC(c2ccncc2)C1,-50
CN1CC[C@H]2CC[C@@H](C1)N2c1ccnc(C(=O)NCc2cccnc2)c1,-5
Cc1[nH]cnc1CN(CCO)CC12CC3CC(CC(C3)C1)C2,3
C=CCc1cccc2cc(C(=O)N3CCN(c4ccc(F)cc4)CC3)c(=O)oc12,-68
O=C(NC12CC3CC(CC(O)(C3)C1)C2)c1cccc(NCc2cccs2)c1,-20
COc1cccc(CN2CC[C@]3(CCC[C@@H](CN4CCCC4=O)O3)C2)c1,0
COc1ccc(S(=O)(=O)Nc2ccc3c(c2)C(=O)N([C@H](C)CO)C[C@@H](C)[C@H](CN(C)S(=O)(=O)c2ccc(Cl)cc2)OCCCC[C@@H](C)O3)cc1,?
COc1cc(/C=C/c2ccc(O)cc2)cc(OC)c1,146
CCOC(=O)C1CCN(C(=O)C2=C(C)C(=O)OC23CCN(S(C)(=O)=O)CC3)CC1,-1
COc1cccc(CN2C[C@@H]3C[C@H](C(=O)Nc4ccccc4)[C@@H](C2)O3)c1,-21
Cc1cccc(OCC(=O)N2CCC3(CC2)Nc2ccc(Cl)cc2-n2cccc23)c1,-107*
CCc1c(C)sc2c1CCN(Cc1nc(-c3ccc(C)cc3)oc1C)C2c1ccccc1 (stereo unspecified),-67
COc1ccccc1CNC(=O)c1c(O)c2cccnc2n(-c2ccc(F)cc2)c1=O,-74*
Cc1nn(Cc2nc(-c3ccc(NC(=O)c4cccc(F)c4)cc3)oc2C)c(C)c1C,49
CN(Cc1cc(-c2cccs2)n[nH]1)C(=O)c1cc2n(n1)CCCNC2,8
COc1ccccc1CN1CCc2nc(SCc3nc(-c4cccc(C)c4)oc3C)[nH]c(=O)c2C1,-57
C[C@H]1CN([C@@H](C)CO)C(=O)CCCn2nncc2CO[C@H]1CN(C)C(=O)c1ccc2ccn(C)c2c1,-25
CCN(CC)CCNC1CCN(CC)CC1,29
O=C(Cn1c(=O)ccc2cc(S(=O)(=O)N3CCCC3)ccc21)NC1CC1,10
COc1ccc(CCNC(=O)CC2Nc3c4ccccc4nc(=S)n3C2=O)cc1OC (stereo unspecified),-7
Cc1[nH]ncc1C(=O)N1CC[C@@H](c2ccc(F)cc2)[C@H](O)C1,-2
COC(=O)c1cc(C)nc(-c2ccc(C(C)N3CCCCC3)cc2)n1 (stereo unspecified),-3
COC(=O)c1c(NCc2ccccc2Cl)c2ccccc2[nH]c1=O,3
CCN1Cc2ccccc2CC1C(=O)NCCSc1nnnn1C (stereo unspecified),-15
COc1ccc2c3c([nH]c2c1)[C@@H](CO)N(C(=O)CN1CCOCC1)CC31CCN(CC2CCCC2)CC1,12
COCCN1CCC2(CCCN(c3cnccn3)C2)CC1,-53
CC(C)(C)N=C1Nc2ncccc2NC12CCN(C(=O)c1cc(-c3cccs3)[nH]n1)CC2,26
C[C@@H]1CN([C@H](C)CO)C(=O)c2cc(/C=C/c3ccccc3)cnc2O[C@H]1CN(C)S(=O)(=O)c1ccccc1F,?
O=C(C[C@@H]1C=C[C@@H](NC(=O)c2cnccn2)[C@H](CO)O1)NCc1ccccc1F,-44
C[C@@H]1CN([C@@H](C)CO)C(=O)Cc2cc(NC(=O)CCC(F)(F)F)ccc2O[C@@H]1CN(C)CC1CC1,49
O=C(CCC1CCCC1)NCc1ccccn1,-11
CS(=O)(=O)N1CCC(c2ccc(C(=O)Nc3cccc(-n4cccn4)c3)cn2)CC1,5
O=C(O)c1ccccc1OCCOc1ccccc1,-12
CC(CN1CCOCC1)NC(=O)c1cc(C(C)C)nc2c1c(=O)[nH]c(=O)n2C (stereo unspecified),11
O=C(Nc1ccc(Cl)cc1)N1C[C@H]2[C@@H](c3ccccc31)[C@H](CO)N2CC1CCCCC1,7
Cn1c(C(=O)N2CCN(c3ccccn3)CC2)cc2cc(S(=O)(=O)N3CCCCC3)ccc21,-45
Cc1oc2cc(O)ccc2c(=O)c1Oc1ccc(Cl)cc1,17
CCN(Cc1nc(COC)no1)C(=O)c1cccnc1N1CCOCC1,-19
N#C[C@H]1[C@@H](c2ccccc2-c2cccc(F)c2)[C@@H](CO)N1C(=O)NC1CCCCC1,-53
COc1ccc2c(c1)NC1(CCN(C(=O)Nc3ccc(Br)cc3F)CC1)c1cccn1-2,248
COc1ccc(OC)c(Nc2nc(-c3nnc(-c4cccc(C)c4)o3)nc3ccccc23)c1,-55
COc1cc(Cl)c(C)cc1NC(=O)c1nc(Nc2ccc(C)cc2)c2ccccc2n1,74
CCCN1CCN(CCCNc2nc(-c3ccc(Cl)cc3)nc3ccccc23)CC1,-67
C=CCn1c(=O)c(C(=O)Nc2cc(Cl)ccc2C)c(O)c2ccccc21,72

# Other structures follow:
compound,Tg IFNy HTS
O=C(Cc1ccc(CC(=O)c2ccccc2)cc1)c1ccccc1,-40
CC(C)N1CCN(CC2CC2)CC1c1nnc2ccc(C(=O)NCCN(C)C)cn12 (stereo unspecified),3
O=C(NCCc1csc2c1CCCC2)c1cn(CC2CCCNC2)nn1 (stereo unspecified),-78*
COc1ccc(C2Sc3ccccc3N=C3c4ccccc4CCC32)cc1 (stereo unspecified),-65
Cc1ccc(-c2[nH]ncc2CNCCc2cccc(F)c2)cc1C,-6
CC(C)N(C)Cc1ncn2c1CN(C(=O)c1ccc3ccccc3n1)CCC2,0
Cc1cc(-c2cc(=O)[nH]nc2C2CCN(C(=O)Cc3ccccc3F)CC2)on1,-10
Cc1ccccc1-c1ccccc1[C@@H]1[C@@H](C#N)N(C(=O)c2ccc(F)cc2)[C@H]1CO,-44
CC(C)[C@H]1CN(C)CCN1Cc1cn(C)nc1-c1cccc(Cl)c1,31
Cc1ccc(C)c(-c2nc(Cn3c(=O)c4c(C)cc(C)nc4n(Cc4ccco4)c3=O)c(C)o2)c1,-6
CCCCc1ccc(O)cc1O,15
